High-throughput results as filed in PubChem BioAssay.
KCNQ2 enhance: KCNQ2 (rat) channel potentiation | CHO-K1 KCNQ2, FluxOR thallium flux fluorescence; active compounds read high | B-score at 10 µM | 310,000 compounds, 0.54% hits;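 active means fluorescence ratio B-score at least 3 SD of library B-scores, with initial fluorescence B-score within 3 SD, cut at about 5.3 in these data; same plate scores as AID 2156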;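 further: B-score of peak minus minimum over baseline fluorescence ratio after K+ and Tl+ stimulus; positive B-score means potentiation of KCNQ2 with more thallium influx and brighter signal; only the inactives scoring about 0 or higher are listed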
Target sequence (O88943 whole entry, looked up): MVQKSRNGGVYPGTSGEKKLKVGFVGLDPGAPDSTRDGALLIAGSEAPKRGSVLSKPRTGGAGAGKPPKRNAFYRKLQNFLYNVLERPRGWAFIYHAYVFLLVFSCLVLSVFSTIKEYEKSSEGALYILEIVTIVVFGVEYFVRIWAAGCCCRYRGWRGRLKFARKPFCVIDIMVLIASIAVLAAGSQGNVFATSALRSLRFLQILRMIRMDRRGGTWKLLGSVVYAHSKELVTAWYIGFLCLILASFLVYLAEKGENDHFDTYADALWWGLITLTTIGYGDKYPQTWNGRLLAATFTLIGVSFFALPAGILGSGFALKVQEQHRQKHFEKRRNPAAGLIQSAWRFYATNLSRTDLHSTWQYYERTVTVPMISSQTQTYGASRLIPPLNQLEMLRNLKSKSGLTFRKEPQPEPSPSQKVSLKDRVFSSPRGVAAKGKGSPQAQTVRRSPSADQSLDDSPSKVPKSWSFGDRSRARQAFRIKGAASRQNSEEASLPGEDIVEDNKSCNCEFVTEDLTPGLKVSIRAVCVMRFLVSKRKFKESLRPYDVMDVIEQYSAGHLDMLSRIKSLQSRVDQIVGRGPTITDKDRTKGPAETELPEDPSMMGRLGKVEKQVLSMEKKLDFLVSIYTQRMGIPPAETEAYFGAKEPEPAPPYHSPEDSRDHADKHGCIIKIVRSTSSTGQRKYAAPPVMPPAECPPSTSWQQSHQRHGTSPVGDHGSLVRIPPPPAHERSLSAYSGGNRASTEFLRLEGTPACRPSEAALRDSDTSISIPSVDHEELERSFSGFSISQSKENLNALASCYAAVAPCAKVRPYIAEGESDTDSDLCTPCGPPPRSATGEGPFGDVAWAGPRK
KCNQ2 enhance baseline: recorded beside KCNQ2 enhance, whose call it bears; B-score; compound at 10 µM; measured here: initial fluorescence intensity artifact check;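 brightness before thallium and not channel activity; 0 = typical well and far values either way flag optical interference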
The depositor's hits bear a star. Only part of the results is shown, so the mix of outcomes need not match the whole.

SMILES	KCNQ2 enhance	KCNQ2 enhance baseline
O=C(COC(=O)c1ccc2ncsc2c1)Nc1ncc(Cl)cc1Cl	1.09	-0.69
CC(=O)N1c2ccc(S(=O)(=O)N(C)CC(=O)NC3CCCC3)cc2CC1C (stereo not given)	1.52	2.19
COc1ccc(-c2nnn(CC(=O)N(CCCN3CCOCC3)C(C(=O)NC3CCCC3)c3ccc(C)o3)n2)cc1 (stereo not given)	0.34	-0.3
Cc1[nH]c2ccc(C(=O)NCC(C)(C)N3CCOCC3)cc2c1C	0.91	-2.58
CCc1ccc(NC(=O)C(=O)N/N=C(\C)CC(=O)Nc2ccc(OC)cc2)cc1	0.78	1.05
COc1ccc(C2/C(=C(/O)c3ccc(Br)cc3)C(=O)C(=O)N2C)cc1OC (stereo not given)	1.33	-0.21
COc1ccc(CCC(C)NCC2CCCCC2)cc1 (stereo not given)	0.16	-0.53
CCCC1CCC(=NNC(=O)OC(C)(C)C)CC1 (stereo not given)	1.97	0.36
COc1ccc(/C=C/c2c(-c3cccc(C)c3)oc3ccc(-c4ccc5c(c4)OCO5)cc23)cc1	0.35	0.95
O=C(O)C1CCC(N2C(=O)C3CCCCC3C2=O)CC1 (stereo not given)	1.22	0.06
Cc1cc(NC(=O)Nc2ccccc2F)ccc1Br	0.06	-0.1
COc1ccc(-c2cc(C(=O)O)c3ccccc3n2)c(OC)c1	1.56	-1.27
O=C(NCCc1c[nH]c2ccccc12)C(=O)Nc1cc2c3c(c1)CC(=O)N3CCC2	1.42	0.72
CCc1cc(C(=O)OC)c(NC(=O)CC2SC(N)=NC2=O)s1 (stereo not given)	0.02	1.39
COc1ccc(CCN2CC(C(=O)NC3CCOCC3)CCC2=O)cc1 (stereo not given)	1.17	0.15
CS(=O)(=O)c1ccc(C(=O)N2CCc3ccccc3C2)cc1	1.45	-0.82
O=C(c1cc([N+](=O)[O-])ccc1N1CCOCC1)N1CCN(S(=O)(=O)c2cc(Cl)ccc2Cl)CC1	0.8	-0.7
C=CCn1c(SC2CCOC2=O)nc2sc(C)c(C)c2c1=O (stereo not given)	2.41	1.4
Nc1nc2n(n1)C(c1cccc(Cl)c1)CC(c1ccc(F)cc1)N2 (stereo not given)	0.21	-0.66
O=C1CCCC/C1=C/Nc1ccc(C(=O)O)cc1	0.52	-0.94
O=c1c2[nH]c3ccc(F)cc3c2ncn1CCN1CCOCC1	0.32	-0.12
CC(=O)Nc1cccc(-c2csc(N)n2)c1	0.04	0.7
Cc1c(OCC(=O)N2CCC(C(=O)O)CC2)ccc2c1oc(=O)c1ccccc12	0.36	0.83
O=c1[nH]c(=S)[nH]c2c1CN(Cc1ccc(F)cc1)CC2	1.25	-0.69
CCCOc1ccc(CNC(=O)c2ccc3c(c2)N(CC)CCS3)cc1	0.04	-1.36
CC(NC(=O)c1ccc2c(c1)OCO2)C(c1cccs1)N1CCOCC1 (stereo not given)	0.52	-0.14
COC(=O)c1ccccc1NC(=O)CN1CCC(n2nnc3cc(F)ccc32)CC1	1.1	-0.71
CC(=O)OCC1=C(C(=O)O)N2C(=O)C(NC(=O)CCn3nc(C(F)(F)F)c(Br)c3C3CC3)C2SC1 (stereo not given)	0.01	-0.72
S=C(NCCCN1CCOCC1)NCCCN1CCOCC1	1.47	-0.78
CCOC(=O)C(/C=C(\C#N)C(=O)OCC)=C(/N)N1CCN(c2ccccc2)CC1	0.91	2.74
Cc1cc2c(nn1)CCC/C2=N\O	0.37	-0.33
COc1ccccc1COCC(O)CNCC1(N2CCCCC2)CCCCC1 (stereo not given)	1.83	-0.78
Cc1ccccc1NC(=O)/C(=C\c1cccs1)NC(=O)c1ccco1	1.36	-4.15
CCC1CCc2c(sc(NC(C)=O)c2C#N)C1 (stereo not given)	0.88	-0.51
O=[N+]([O-])c1ccc(OCCO)nc1	0.03	-0.43
CCCc1nnc(NC(=O)CCC(=O)NCCc2ccc(Cl)cc2)s1	0.21	-0.19
CCCCNC(=S)NC(=O)c1ccc([N+](=O)[O-])cc1	8.79*	1.26*
COc1ccc(/C=C2\SC(=S)N(CC(=O)NCCO)C2=O)cc1	1.71	-2.16
COc1ccc(NC(=O)c2cccc(N3C(=O)c4ccc(C(=O)Nc5ccc(OC)c(O)c5)cc4C3=O)c2)cc1O	0.93	-1.08
Cc1sc(NC(=O)c2ccc(=O)n(C)n2)nc1-c1ccccc1	2.08	-0.68
COc1ccc(CN2C(=O)CCC2(C)C(=O)NC2CCCCCC2)cc1 (stereo not given)	0.21	0.11
CCCCCCCC[n+]1cccc2c3ccccc3ccc21	0.04	-1.27
Cc1[nH]c2ccccc2c1C(=O)C(=O)NCc1ccncc1	0.02	0.02
Cn1c(=O)c2c(ncn2CCC(=O)N/N=C/c2cccnc2)n(C)c1=O	0.03	-0.26
COC(=O)c1c(C)nc(C)c(C(=O)OC)c1-c1ccc(OC)c(OC)c1	0.98	0.68
COC(=O)c1cc2ccccc2c(-c2c(OC)c(C(=O)OC)cc3ccccc23)c1OC	0.07	1.28
CC1CC(C)CN(C(=S)NC2CCCCC2)C1 (stereo not given)	1.34	-0.69
COc1ccc(-c2csc(Nc3cccc(C)n3)n2)cc1C	0.04	1.71
COc1cccc(C2CC(c3ccc(Cl)cc3Cl)Nc3nc(N)nn32)c1 (stereo not given)	0.04	-0.53
Cc1c(N(C(=O)CNC(=O)c2ccccc2)C2(C(=O)NC3CCCCC3)CCCCC2)c(=O)n(-c2ccccc2)n1C	0.24	-2.49
CCOc1ccc(C(C)(O)CN2CCOCC2)cc1 (stereo not given)	0.1	-1.05
CCOC(=O)C1CCCN(Cc2nc(N)nc(Nc3ccccc3)n2)C1 (stereo not given)	0.75	0.06
CNC(=S)Nc1ccc(C)cc1	1.3	-0.76
Cc1ccc(F)cc1NC(=O)c1ccc2c(c1)OCO2	0.22	-1.28
Cc1n[nH]c(=S)n1/N=C/c1ccc(OCc2ccc(Cl)cc2Cl)cc1	0.35	-0.02
CCCCS(=O)Cc1ccccc1 (stereo not given)	0.64	1.1
CCOc1cc(NC(=O)c2ccccn2)c(OCC)cc1NC(=O)c1ccc(Cl)cc1	0.03	1.47
CCCN1C(=O)/C(=N\OCC(=O)NC23CC4CC(CC(C4)C2)C3)c2ccccc21	0.85	-0.77
Cc1cc(C)cc(N(CC(=O)NC2CCCCC2)C(=O)CNC(=O)c2ccco2)c1	0.84	3.94
CCc1nc2c(n1O)CCc1nonc1-2	0.92	0.31
The list goes on.
SMILES	KCNQ2 enhance	KCNQ2 enhance baseline
C=CCNc1nnc(Cc2ccc(C(C)C)cc2)c(=O)[nH]1	1	0
CCC(c1nnnn1Cc1ccco1)N1CCN(C(=O)c2ccco2)CC1 (stereo not given)	0.11	1.17
CCN(CC)c1ccc(NC(=O)c2ccco2)c(C)c1	2.94	0.01
CC(C)(C)N1CC(C(=O)Nc2ccc(S(=O)(=O)N3CCCCC3)cc2)CC1=O (stereo not given)	0.4	-0.24
COc1ccccc1CNC(=O)C1CCC1	1.35	1.65
CCOc1ccccc1N1CCN(Cc2cccc(OC)c2O)CC1	1.33	0.41
NS(=O)(=O)c1ccc(CCNc2ccccc2[N+](=O)[O-])cc1	0.55	-1.68
CN(C(=O)c1ccc2c(=O)n3c(nc2c1)CCCCC3)c1ccccc1F	2.4	-0.05
COC(=O)c1cn(NC(=O)c2ccc(OC)c([N+](=O)[O-])c2)c(=O)c2ccccc12	0.78	0.32
O=C(c1ccccc1)N1CCCCC(Sc2nnc3ccccn23)C1=O (stereo not given)	0.01	-0.01
Cc1c(OC(C(=O)O)c2ccccc2)ccc2c3c(c(=O)oc12)CCC3 (stereo not given)	1.57	-1.27
Cc1cc(N2CCCC2)c(C)cc1C=O	0.84	-0.06
CCn1ccc(C(=O)Nc2ccc3c(c2)CCC3)n1	0.46	2.36
NC(=O)CC(NC(=O)Cc1ccc(Br)cc1)c1ccc(NCCc2ccccc2F)c([N+](=O)[O-])c1 (stereo not given)	0.69	1.16
CCOc1ccc(NC(=O)CN(C)C(=O)c2cc(C)on2)cc1OCC	0.53	1.1
COc1ccc(NC(=O)CSc2nnc(C)n2C2CCCCC2)cc1	0.21	0.47
O=C(COc1ccccc1)N(Cc1nnc(-c2ccccc2Cl)o1)C1CC1	1.33	-0.1
O=C(CCCN1C(=O)c2ccccc2C1=O)N1CCC(c2ccccc2)C1 (stereo not given)	0.02	-0.09
CCOc1ccc(S(=O)(=O)N2CCC(C(=O)NCc3cccnc3)CC2)cc1C	0.75	-0.52
O=C(NCc1cccnc1)c1ccc(Br)o1	0.04	1.41
O=c1c2ccccc2nc2ccccn12	0.02	-1.14
Cn1c(COc2ccccc2)nnc1SCC(=O)Nc1ccc(N2CCOCC2)cc1	0.67	0.44
O=C1/C(=C\c2cccnc2)CN(Cc2ccccc2)C/C1=C\c1cccnc1	0.18	0.02
NC(=O)NC(=O)COC(=O)CCCSc1nc2ccccc2s1	0.15	2.39
COc1ccc(-c2cnc(SCCNC(=O)c3ccc4c(c3)OCO4)[nH]2)cc1	0.71	1.27
COc1ccccc1N(C(=O)c1snc(C(N)=O)c1N)C(C(=O)NCc1ccccc1)c1ccc(O)cc1 (stereo not given)	0.34	-0.05
CNC(=O)c1cc2ncc(C(F)(F)F)cc2s1	1.16	0.56
CC1CCCC(NS(=O)(=O)c2cccc3nsnc23)C1C (stereo not given)	0.77	0.44
COc1ccc(CCNC(=O)C2CCCN2C(=O)Nc2ccc(C)cc2)cc1OC (stereo not given)	1.35	0.12
C/C(CC(=O)NC12CC3CC(CC(C3)C1)C2)=N\NC(=O)Cc1cccs1	0.63	0.7
Cc1c(O)ccc2c(=O)c(Oc3ccccc3)coc12	0.74	-2.64
C=C(C)CSC1=C(C#N)C(c2ccsc2)CC(=O)N1 (stereo not given)	0.67	-1.11
CC(C)C(NC(=S)Nc1ccccc1)C(=O)O (stereo not given)	0.56	0.65
CN(C)c1nc(Nc2ccc(Cl)cc2)nc(OCC#N)n1	1.6	-1.57
Cc1nc2cc(-c3cccs3)[nH]n2c(=O)c1C	0.28	-0.38
O=C(NC(=S)NCCCN1CCOCC1)c1ccc([N+](=O)[O-])cc1	0.47	0.21

Looked up one by one from the entries so far (five):
SMILES	KCNQ2 enhance	KCNQ2 enhance baseline
CC1CCCC(NS(=O)(=O)c2cccc3nsnc23)C1C (stereo not given)	0.77	0.44
C=C(C)CSC1=C(C#N)C(c2ccsc2)CC(=O)N1 (stereo not given)	0.67	-1.11
COc1ccc(CCNC(=O)C2CCCN2C(=O)Nc2ccc(C)cc2)cc1OC (stereo not given)	1.35	0.12
CN(C)c1nc(Nc2ccc(Cl)cc2)nc(OCC#N)n1	1.6	-1.57
C/C(CC(=O)NC12CC3CC(CC(C3)C1)C2)=N\NC(=O)Cc1cccs1	0.63	0.7

Additional entries.
SMILES	KCNQ2 enhance	KCNQ2 enhance baseline
CCN(CC)S(=O)(=O)c1ccc(NC(=O)COC(=O)CN2C(=O)c3ccccc3C2=O)cc1	1.22	-0.02
CCOC(=O)Cn1c2c(c(=N)c3ccccc31)CCC2	0.87	-0.03
CCOC(=O)C1=C(C)N=C2SCCC(=O)N2[C@@H]1c1cccs1	0.15	-0.48
Cc1ccc(CCNC(=O)c2nc(CS(=O)(=O)c3ccc(Cl)cc3)no2)cc1	1.04	-0.61
COc1ccc(S(=O)(=O)NC(C(C)C)C(C)C)cc1OC	0.53	-1.65
OCCC1CN(Cc2nc(-c3ccccc3)cs2)CCN1C1CCCC1 (stereo not given)	0.76	0.95
O=C(O)/C=C/C(=O)Nc1ccccc1C(=O)OCC(=O)c1ccc2c(c1)OCCO2	1.52	-0.01
O=C(Cn1nnc(-c2ccc(Cl)cc2)n1)NCCC1=CCCCC1	1.12	1.88
CC(C)NC(=O)NC(=O)COC(=O)c1cccc(OC(F)F)c1	1.9	0.18
O=C(Nc1ccn(Cc2ccccc2F)n1)c1ccc(COc2ccccc2Cl)cc1	1.98	0.41
CC(C)c1nc(NCCO)c(C#N)c2c1CCCC2	1.68	0.04
Cc1ccc(OCCCCCCN2CCNCC2)cc1	0.16	0

3 of the entries above in order of their number in KCNQ2 enhance baseline, smallest number first:
| Structure | KCNQ2 enhance baseline |
| --- | --- |
| COc1ccc(S(=O)(=O)NC(C(C)C)C(C)C)cc1OC | -1.65 |
| CCOC(=O)Cn1c2c(c(=N)c3ccccc31)CCC2 | -0.03 |
| CCN(CC)S(=O)(=O)c1ccc(NC(=O)COC(=O)CN2C(=O)c3ccccc3C2=O)cc1 | -0.02 |

Back to the main list, starting five compounds before the break.
SMILES	KCNQ2 enhance	KCNQ2 enhance baseline
O=C(Cn1nnc(-c2ccc(Cl)cc2)n1)NCCC1=CCCCC1	1.12	1.88
CC(C)NC(=O)NC(=O)COC(=O)c1cccc(OC(F)F)c1	1.9	0.18
O=C(Nc1ccn(Cc2ccccc2F)n1)c1ccc(COc2ccccc2Cl)cc1	1.98	0.41
CC(C)c1nc(NCCO)c(C#N)c2c1CCCC2	1.68	0.04
Cc1ccc(OCCCCCCN2CCNCC2)cc1	0.16	0
CCCCP(=O)(CCCC)c1ccccc1C(=O)O	0.49	0.09
Nc1c(Cl)ncnc1N1CCCC1	0.47	-1.94
COc1ccccc1CNC(=O)CN(C)S(=O)(=O)c1cccc2cccnc12	0.18	0.01
COc1ccc(NC(=O)c2nc[nH]c2C(=O)N2CCN(c3ccccc3)CC2)cc1	0.03	-0.62
O=C(c1ccc(Cl)cc1[N+](=O)[O-])N1CCN(c2ccccn2)CC1	0.95	1.93
NNC(=O)c1ccc(COc2ccc3c(c2)CCC3)cc1	1.48	-0.98
Cc1nc2n(COCCO)cnn2c(=O)c1Br	1.13	2.18
COc1ccccc1N1CCN(CC(=O)NCC2CCCO2)CC1 (stereo not given)	0.14	-0.12
C=CCN(c1ccccc1)S(=O)(=O)c1cccc(C(=O)Nc2ncccc2C)c1	0.28	-0.53
